Source: PubChem (Southern Research Institute)
Mtb H37Rv: Mycobacterium tuberculosis H37Rv growth inhibition, putative kinase inhibitor library, confirmatory dose response (AID 2842) | M. tuberculosis H37Rv growth inhibition; higher % means a stronger effect; some inactives read as strong as hits | inhibition, % at 10 µg/mL, or IC90 in µg/mL where a hit was titrated | 5.2% of 24,000 active;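 active = confirmed in a dose series; about a fifth of its hits are not listed in these tables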;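 note: bacteria incubated one week before Alamar blue readout; 0% = bacteria only wells and 100% = bacteria with high antibiotic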
Starred values were filed as active, the others as inactive.

compound	Mtb H37Rv
O=C(Nc1nc(-c2ccncc2)cs1)c1ccc(N2C(=O)CCC2=O)cc1	-7%
N#C/C(=C\c1ccc(-c2ccccc2[N+](=O)[O-])o1)C(=O)Nn1cnnc1	12%
Cc1ccc2cc(CCNC(=O)c3ccc(C(F)(F)F)cc3)c(=O)[nH]c2c1C	-5%
COC(=O)c1c(C)oc2cc(Br)c(OCC(N)=O)cc12	4%
COC(=O)c1nn(-c2ccc3c(c2)CCN3C(C)=O)cc1O	7%
Cc1ccc2cc(CCNC(=O)c3ccccc3C(F)(F)F)c(=O)[nH]c2c1C	-9%
CC(=O)c1ccc(NC(=O)c2ccc(S(=O)(=O)N(C)C3CCCCC3)cc2)cc1	0%
COc1ccc(-c2ccc(=O)n(CCNS(=O)(=O)c3ccc(Cl)cc3)n2)cc1	0%
COc1ccccc1NC(=O)c1oc2ccccc2c1NC(=O)c1cc2ccccc2oc1=O	59%
Brc1ccc2nc(N3CCOCC3)sc2c1	7%
Cc1cc(O)c(C(=O)Nc2cccc(Cl)c2)c(=O)n1C	-12%
COCCCNc1ncnc2c1c(-c1ccccc1)cn2-c1ccc(F)cc1	6%
Cc1nc2sc(C(c3ccccc3)N3CCN(C(=O)c4ccco4)CC3)c(O)n2n1 (stereo not drawn)	-3%
Cc1ccc(C(=O)CSc2nccn(-c3ccc(Cl)cc3)c2=O)cc1	-8%
O=C(COc1ccc2ccccc2c1)Nc1nnc(-c2ccc(Cl)cc2)s1	-6%
CC(=O)Nc1nc(SCC(=O)NCc2ccccc2Cl)[nH]c(=O)c1NC(=O)c1cccs1	-16%
CC1CC(C)CN(S(=O)(=O)c2ccc(C(=O)Nc3nc(-c4cc(Cl)sc4Cl)cs3)cc2)C1 (stereo not drawn)	15%
COc1ccc(OC)c2[nH]c(=O)c(CCNC(=O)C(C)(C)Oc3ccc(Cl)cc3)cc12	5%
CC(C)CN(C(=O)c1ccc([N+](=O)[O-])cc1)C1CCS(=O)(=O)C1 (stereo not drawn)	-10%
CN(CCCC(=O)n1cnc2ccccc21)S(=O)(=O)c1ccc2c(c1)C(=O)c1ccccc1C2=O	-4%
COc1ccc(-c2nnc(Nc3nc4c(OC)cccc4s3)o2)cc1	24µg/mL*
Cc1nnc(SCC(=O)Nc2ccc3c(c2)OCCO3)n(N)c1=O	23µg/mL*
CCc1ccc(NC(=O)NC2CC(=O)N(c3cccc(OC)c3)C2)cc1 (stereo not drawn)	3%
COc1ccc(C2c3cccn3CCN2C(=O)Nc2cccc(C)c2)cc1 (stereo not drawn)	-3%
CCOC(=O)CCC(=O)Nc1c(C(=O)Nc2ccc(C)c(C)c2)oc2ccccc12	-2%
COc1ccccc1CNC(=O)NC1CC(=O)N(c2ccc(Cl)cc2)C1 (stereo not drawn)	17%
CC(C)(C)c1ccc(C(=O)Nc2sc3c(c2C#N)CCCC3)cc1	-16%
COc1cccc(C(=O)N2CCN=C2SCc2ccc([N+](=O)[O-])cc2)c1	0%
CC(=O)Oc1cccc(NC(=O)CC2SC(N)=NC2=O)c1 (stereo not drawn)	6%
CC(CSc1nnnn1-c1ccccc1)Cn1c(N2CCOCC2)nc2c1c(=O)[nH]c(=O)n2C (stereo not drawn)	-12%
Cc1ccc(Cl)cc1NS(=O)(=O)c1cc2c3c(c1)C(C)C(=O)N3CCC2 (stereo not drawn)	-4%
C=CCNS(=O)(=O)c1cc2c3c(c1)CCN3C(=O)CC2	-10%
COc1ccc(-n2c(=O)[nH]c3c(C(N)=O)nc(-c4ccco4)nc32)cc1OC	-10%
COc1cccc(N2CC(NC(=O)Nc3ccccc3Cl)CC2=O)c1 (stereo not drawn)	5%
CSc1ccc2nc(Nc3cc(C)ccc3C)sc2c1	14%
Cn1c(Sc2ccc3ccccc3n2)nc2c1c(=O)[nH]c(=O)n2C	-5%
COc1ccc(Cc2cnc(NC(=O)COc3ccc(OC)cc3)s2)cc1	2%
COc1ccc(S(=O)(=O)c2cn(Cc3ccccc3)c3ccc(F)cc3c2=O)cc1	8%
O=C(CCCn1c(=S)[nH]c2cc3c(cc2c1=O)OCO3)N1CCN(c2ccccc2)CC1	-6%
CCOc1ccc(NC(=O)CSc2nc(-c3ccc([N+](=O)[O-])cc3)nc3c2c(=O)n(C)c(=O)n3C)cc1	-6%
COc1ccc(C2NC(=O)c3ccccc3N2)cc1OC (stereo not drawn)	-5%
O=C(Cc1cc(=O)[nH]c(=O)[nH]1)N1CCN(CCO)CC1	8%
c1coc(-c2nnc(Nc3nc4cc5c(cc4s3)OCO5)o2)c1	-6%
CCCc1cc(-c2[nH]ncc2-c2ccccc2)c(O)cc1OC	17%
COc1ccc(CC(=O)Nc2c(C(=O)Nc3ccccc3)oc3ccccc23)cc1OC	-9%
Cc1cccc(NC(=O)CSc2nc(N)c(NC(=O)c3ccc(Br)o3)c(=O)[nH]2)c1C	-10%
O=C(CC1Sc2ccc(C(F)(F)F)cc2NC1=O)Nc1ccc(Cl)c(C(F)(F)F)c1 (stereo not drawn)	49%
Cc1nc2ccccc2c(=O)n1-c1cccc(NC(=O)c2cc([N+](=O)[O-])cc([N+](=O)[O-])c2)c1	28µg/mL*

The list continues:
compound | Mtb H37Rv
CC(=O)O/C(=C\Oc1ccccc1OC(C)=O)c1ccc([N+](=O)[O-])cc1 | 5%
O=C1CC(c2ccccc2)=NN1c1ccc2ccccc2c1 | 84%
COc1ccc(C)c2sc(N3CCN(c4nc5ccccc5s4)CC3)nc12 | 1%
COc1cc(OC)cc(C(=O)Nc2cccc3c2C(=O)N(C)C3=O)c1 | -8%
O=C(CSc1nc2c([nH]c3ccccc32)c(=O)n1-c1ccccc1)NCc1ccccc1 | 35%
O=C1N=C(N2CCN(c3ccccc3)CC2)S/C1=C\c1ccc(O)cc1 | 72%
O=C(Nc1nnc(-c2cc(Cl)ccc2Cl)o1)c1nc2ccccc2s1 | 10µg/mL*
O=[N+]([O-])c1ccc2ncnc(Nc3ccc(O)cc3)c2c1 | 8%
Cc1nc2c(ccc3nc(Nc4nc5c(F)cccc5s4)sc32)s1 | 18%
N#C/C(=C\c1ccc(-c2ccc([N+](=O)[O-])cc2)o1)C(=O)NCc1ccco1 | 2%
COc1cccc2c(=O)n(CC(=O)NCc3ccco3)ccc12 | 0%
O=C1C2N=NN(Cc3ccc(F)cc3Cl)C2C(=O)N1c1ccc(Cl)cc1 (stereo not drawn) | -11%
Cc1ccc(-c2nnc(NC(=O)c3ccccc3C(F)(F)F)s2)cc1 | 0%
O=C(Nc1cc(Cl)cc(Cl)c1)c1ccc(N2C(=O)CCC2=O)cc1 | 5%
O=C(Nc1nnc(-c2ccco2)o1)c1ccc(N2C(=O)CCC2=O)cc1 | 99%
CCOC(=O)C1CCN(C(c2cccc(F)c2)c2sc3nc(C)nn3c2O)CC1 (stereo not drawn) | -1%

Rewritten field by field: two of the compounds above
O=C(Nc1nnc(-c2ccco2)o1)c1ccc(N2C(=O)CCC2=O)cc1
  Mtb H37Rv = 99%

CCOC(=O)C1CCN(C(c2cccc(F)c2)c2sc3nc(C)nn3c2O)CC1 (stereo not drawn)
  Mtb H37Rv = -1%

Next section
compound | Mtb H37Rv
Cc1ccc(-n2c(SCC(=O)Nc3cccc(C)c3C)nc3c(c2=O)SCC3)cc1 | -5%
COc1ccc(N2CC(NC(=O)Nc3ccc4c(c3)OCO4)CC2=O)cc1OC (stereo not drawn) | -10%
CC(=O)c1ccc(NC(=O)CSc2ccc(-c3ccc(-n4ccnc4)cc3)nn2)cc1 | -4%
CC(=O)Nc1nnc(-c2ccc(Cl)cc2)s1 | 15%
CC(NC(=O)NC1CC(=O)N(c2ccc(Cl)cc2)C1)c1ccccc1 (stereo not drawn) | 17%
NC(=O)c1ccccc1NC1=NS(=O)(=O)c2ccccc21 | 8%
Cc1c(C(=O)Nc2c(C(=O)Nc3ccc4c(c3)OCCO4)oc3ccccc23)cccc1[N+](=O)[O-] | 30%
Cn1c(=O)c2c([nH]c(=S)n2Cc2ccc(Cl)cc2)n(C)c1=O | 12%
Cc1ccc(C)c2[nH]c(=O)c(CCNC(=O)c3ccc(-c4ccccc4)cc3)cc12 | 3%
O=C1/C(=C/c2ccccc2F)Oc2cc(O)ccc21 | -10%
O=C(Oc1coc(CSc2ncccn2)cc1=O)c1cc2ccccc2o1 | -4%
COc1cc(/C=C2\SC(=O)N(N(C)c3ccccc3)C2=O)ccc1O | 5%
CCOC(=O)c1nn(-c2ccccc2)c(=O)c2c(NC(=O)c3cccc(F)c3)scc12 | -8%
O=C(Cc1n[nH]c(=O)[nH]c1=O)N/N=C/c1c(Cl)ccc(Cl)c1Cl | -1%
CCN(CC)c1ccc(C(=O)Nc2nc3ccc4ccccc4c3s2)cc1 | 33%
CC1CCc2sc(NC(=O)c3ccc(Br)cc3)c(C(N)=O)c2C1 (stereo not drawn) | -6%
Cc1ccc2cc(CCNC(=S)Nc3ccccc3F)c(=O)[nH]c2c1C | 15%
CCCc1cc(=O)[nH]c2nnc(SC)n12 | 13%
COc1cc2c(=O)c(C(=O)c3ccc(Cl)cc3)cn(Cc3ccc(F)cc3)c2cc1OC | -5%
O=C(CSc1ccc2nnc(CCNC(=O)c3ccc(F)cc3)n2n1)Nc1cccc(Cl)c1 | 25%
CCOCCn1c(=O)c2c(nc3n(-c4ccc(F)cc4)c(C)cn23)n(C)c1=O | -4%
O=C1c2oc3ccc(F)cc3c(=O)c2C(c2ccncc2)N1c1ccccn1 (stereo not drawn) | 0%
CCc1cc(=O)[nH]c(-n2nc(C)cc2NC(=O)CCCc2ccccc2)n1 | 72%
O=S(=O)(NCc1cccnc1)c1ccc2cccc3c2c1CC3 | 6%
CCCc1cc(=O)[nH]c2nnc(SCC(=O)c3ccccc3)n12 | 1%
Nc1nc(SCC(=O)Nc2ccc3c(c2)OCO3)[nH]c(=O)c1NC(=O)c1ccc(Cl)cc1 | -18%
COc1cccc(C(=O)OCn2nnc3ccccc3c2=O)c1OC | -5%
COc1ccc(-c2nnc3c4cc(F)ccc4n(Cc4cccc(OC)c4)cc2-3)cc1 | 34%
N#Cc1c(NC(=O)/C=C/c2ccco2)sc2c1CCCC2 | 7%
COc1ccc(-n2nc3c(c2NC(=O)c2cc(Br)ccc2Cl)CS(=O)C3)cc1 (stereo not drawn) | 18%
O=c1c(S(=O)(=O)c2ccc(Cl)cc2)cn(Cc2cccc(F)c2)c2ccc(F)cc12 | 9%
CCOC(=O)c1nn(-c2ccc(Cl)cc2)c(=O)c2c(NC(=O)c3ccc(F)cc3)scc12 | 6%

Filtered by structure: the entries above containing a CF3 group.
compound | Mtb H37Rv
Cc1ccc2cc(CCNC(=O)c3ccc(C(F)(F)F)cc3)c(=O)[nH]c2c1C | -5%
Cc1ccc2cc(CCNC(=O)c3ccccc3C(F)(F)F)c(=O)[nH]c2c1C | -9%
O=C(CC1Sc2ccc(C(F)(F)F)cc2NC1=O)Nc1ccc(Cl)c(C(F)(F)F)c1 (stereo not drawn) | 49%
Cc1ccc(-c2nnc(NC(=O)c3ccccc3C(F)(F)F)s2)cc1 | 0%

Next records
compound | Mtb H37Rv
O=C(CCSc1ccccc1)Nc1nc2c(s1)COc1ccccc1-2 | 11%
Cc1cc(OC(=O)CC(c2ccccc2)c2ccccc2)c([N+](=O)[O-])c(=O)[nH]1 | -5%
Cc1ccc(NC(=O)CSc2ccc3nnc(-c4cccc(F)c4)n3n2)cc1 | 2%
CCOc1ccc(NC(=O)CSc2nnc3[nH]c(=O)c(C)c(C)n23)cc1 | -6%
COC(=O)C1=C(C)Nc2nc(SCc3ccccc3F)[nH]c(=O)c2C1c1ccc(Cl)cc1 (stereo not drawn) | 23%
CC(=O)Nc1ccc(NC(=O)CSc2ccc(-c3ccccc3)nn2)cc1 | -12%
COc1cccc(C(=O)NCCSc2ncc(-c3ccccc3)[nH]2)c1OC | 16%
COc1ccc(C(CNC(=O)C(=O)Nc2cccc([N+](=O)[O-])c2)N2CCN(C)CC2)cc1 (stereo not drawn) | -12%
O=C(Nc1nc2c(ccc3ccccc32)s1)c1ccc(C(=O)c2ccccc2)cc1 | 0%
COc1cccc(Cn2cc(S(=O)(=O)c3ccc(F)cc3)c(=O)c3cc(F)ccc32)c1 | 2%
COc1ccc(C(=O)CSc2nc(C3CC3)nc3c2c(=O)n(C)c(=O)n3C)cc1 | 3%
O=C(O)c1ccc(NC2=C(Cl)C(=O)N(c3ccc(F)cc3)C2=O)cc1 | 8%
O=C(c1ccco1)N1CCN(C(=O)c2cc3c(ccc4ccccc43)oc2=O)CC1 | -6%
CCOC(=O)c1nn(-c2ccc(C)cc2)c(=O)c2c(NC(=O)CC(C)C)scc12 | 10%
O=C(c1ccco1)N1CCN(c2ccc(N3CCCCCC3)nn2)CC1 | 0%
COC(CNc1ncnc2c1cnn2-c1ccc(Cl)c(Cl)c1)OC | 12%
CS(=O)(=O)c1nc2ccccc2n1CCN1CCOCC1 | -2%
CCOC(=O)C1CCN(C(c2cc(OC)c(OC)c(OC)c2)c2sc3ncnn3c2O)CC1 (stereo not drawn) | -5%

Some of the entries so far, field by field.
> O=C(Nc1nc2c(ccc3ccccc32)s1)c1ccc(C(=O)c2ccccc2)cc1
  Mtb H37Rv: 0%
> COc1cccc(Cn2cc(S(=O)(=O)c3ccc(F)cc3)c(=O)c3cc(F)ccc32)c1
  Mtb H37Rv: 2%
> COc1ccc(C(=O)CSc2nc(C3CC3)nc3c2c(=O)n(C)c(=O)n3C)cc1
  Mtb H37Rv: 3%
> O=C(O)c1ccc(NC2=C(Cl)C(=O)N(c3ccc(F)cc3)C2=O)cc1
  Mtb H37Rv: 8%

Only part of the results is shown, so the mix of outcomes need not match the whole.
